CSC inhib: cancer stem cell inhibition. cancer stem cell-like cells viability, luminescence. inhibition, % at 7.5 µM. actives 1.1% (n = 300,000);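 active = mean at 75% or more and at least half the replicates too; tested in HMLE shEcad cells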;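 also: 0% = median of negative and 100% = median of positive control wells; the first replicate is given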
Rce1 inh: inhibitors of yeast Ras-converting enzyme; yeast membranes, quenched prenylated peptide cleavage fluorescence; calls only; Q03530; actives 0.27% (n = 290,000); AID 2563;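 active = fall in fluorescence gain of 50% or more versus controls, with final raw signal at or below 3038400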;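 also: plate controls were neutral control wells for no effect and wells lacking membranes for full effect; tested at 10 µM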
Target sequence (Q03530 whole entry, looked up): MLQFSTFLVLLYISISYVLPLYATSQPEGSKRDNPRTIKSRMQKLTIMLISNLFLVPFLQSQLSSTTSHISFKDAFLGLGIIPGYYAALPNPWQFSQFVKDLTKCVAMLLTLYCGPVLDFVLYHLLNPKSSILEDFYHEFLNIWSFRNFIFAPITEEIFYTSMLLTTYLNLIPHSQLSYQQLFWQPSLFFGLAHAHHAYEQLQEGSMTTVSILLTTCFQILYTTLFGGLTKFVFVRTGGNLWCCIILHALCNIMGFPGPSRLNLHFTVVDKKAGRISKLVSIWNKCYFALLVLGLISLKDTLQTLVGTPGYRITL
MT1-MMP act inh: blocks activation of human MT1-MMP | GFP/RFP ratio change, % at 20 µM | P50281 | HT1080 RFP-PRO-GFP cells, GFP/RFP ratio fluorescence, overnight; percent of plate control window, DMSO zero | AID 651647 | actives 0.061% (n = 360,000);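 active = GFP/RFP ratio change of at least 30% with cell ATP level not reduced by more than half and red fluorescence within 50% of control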; also: strong numbers were not always called active
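Material – HT1080 RFP-PRO-GFP cells · Control set – DMSO wells and RFP-L50D-GFP cells · Incubation – overnight cell settling, then overnight compound exposure, 37 °C, 5% CO2 · Compound dosing – single-point 20 µM compound, 1% DMSO · Read-out – GFP/RFP fluorescence ratio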
PABP FP inh: PABP-poly(A) binding inhibition. P11940. PABP-poly(A) RNA binding, fluorescence polarization. inhibition, % at 35 µM. actives 1% (n = 290,000). AID 2014;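 active = 50% or more with normal probe brightness, or confirmed in later tests; about a fifth of its hits are not listed in these tables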;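 also: calls also rest on retests at 20 µM and on dose response follow-up; controls were probe without protein and protein plus probe with vehicle; some compounds called inactive have numbers as strong as hits; many hits fall short of the cut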
Target sequence (P11940 whole entry, looked up): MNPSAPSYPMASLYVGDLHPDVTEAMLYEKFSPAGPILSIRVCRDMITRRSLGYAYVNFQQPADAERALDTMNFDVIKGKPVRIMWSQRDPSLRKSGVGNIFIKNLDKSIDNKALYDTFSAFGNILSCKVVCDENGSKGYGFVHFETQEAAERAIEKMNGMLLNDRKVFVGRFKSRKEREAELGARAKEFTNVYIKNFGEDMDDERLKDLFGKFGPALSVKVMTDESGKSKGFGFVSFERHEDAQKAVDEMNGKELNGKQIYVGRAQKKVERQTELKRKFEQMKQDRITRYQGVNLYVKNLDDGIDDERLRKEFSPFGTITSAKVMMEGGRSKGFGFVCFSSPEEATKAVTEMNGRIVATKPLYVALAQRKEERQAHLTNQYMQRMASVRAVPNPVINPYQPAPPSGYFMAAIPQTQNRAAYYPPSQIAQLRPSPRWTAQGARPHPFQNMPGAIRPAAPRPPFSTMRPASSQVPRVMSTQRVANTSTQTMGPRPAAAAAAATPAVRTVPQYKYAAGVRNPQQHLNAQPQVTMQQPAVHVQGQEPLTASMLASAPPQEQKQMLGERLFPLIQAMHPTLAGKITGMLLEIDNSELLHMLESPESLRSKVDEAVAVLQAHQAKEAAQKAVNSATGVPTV
UUG fidelity: alters start codon recognition fidelity in yeast | activity score, % at 18.7 µM | S. cerevisiae UUG-firefly luciferase reporter, luminescence/redox ratio | AID 602363 | actives 0.13% (n = 350,000);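 active = replicate mean at a twofold rise or more, about +100% in these data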;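 also: firefly luciferase made from a UUG start codon reports start codon fidelity; reporter light over untreated wells divided by growth signal over untreated wells; some hits fall short of that in this replicate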
Env fusion inh: blocks HIV Env-driven cell-cell fusion; HeLa-JRFL Env/CEM21 cell fusion, luciferase; inhibition, % at 12.3 µM; actives 1.1% (n = 360,000);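 active = mean replicate inhibition score of at least 50 and every replicate individually at or above 50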;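 also: 0% = plate neutral controls and 100% = maraviroc near 300 nM; one replicate is shown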
eIF4H inh: inhibitors of RNA binding by human eIF4H | Q15056 | eIF4H fluorescence polarization binding assay | inhibition, % at 35 µM | actives 0.94% (n = 290,000) | AID 2012;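 active = 50% or more with normal probe brightness, or confirmed in later tests; about a fifth of its hits are not listed in these tables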;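 also: calls also rest on retests at 20 µM and on dose response follow-up; 0% = protein and probe with vehicle and 100% = probe without protein; strong numbers were not always called active; many hits fall short of the cut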
MT1-MMP act inh RFP: further read-out of MT1-MMP act inh, marked with its call; RFP signal change, %; measured here: RFP expression control read;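 0 = vehicle wells; hits needed this value within 50% of zero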
Active calls of the source: *; i = inactive; / = not tested or not shown.

SMILES | CSC inhib | Rce1 inh | MT1-MMP act inh | MT1-MMP act inh RFP | PABP FP inh | UUG fidelity | Env fusion inh | eIF4H inh
Cc1ccc(CNC(=O)COC(=O)Cn2nc(C)c([N+](=O)[O-])c2C)cc1 | -1 | i | -3 | 5 | 3 | -17 | -5 | 2
CCOc1cc(N2CCOCC2)c(OCC)cc1NC(=O)c1nc2nc(C)cc(C)n2n1 | -10 | i | 3 | 3 | 12 | -14 | / | 0
CC(C)Oc1ccc(C(CCNCc2ccc(O)cc2)c2ccccc2)cc1 (centres undefined) | 38 | i | -2 | 0 | 7 | 14 | 17 | -12
Cn1cnc(S(=O)(=O)Nc2ccc(OC(F)(F)F)cc2)c1 | / | i | 0 | 1 | 6 | / | 10 | 2
Cc1ccccc1N(C)S(=O)(=O)c1ccc2[nH]cc(C(=O)NCC3CCCO3)c(=O)c2c1 (centres undefined) | / | / | 3 | -6 | 11 | 10 | / | -2
COc1cc([N+](=O)[O-])ccc1N | / | i | -1 | 3 | 0 | -6 | / | -9
CC1CN(S(=O)(=O)c2cc(C(=O)N(C)Cc3cccs3)ccc2Cl)CC(C)O1 (centres undefined) | -3 | / | 1 | -9 | / | -4 | / | /
O=C(O)c1ccc(NCCC2=CCCCC2)c([N+](=O)[O-])c1 | 4 | i | -2 | -7 | -12 | -17 | 12 | -2
CCOC(=O)c1nnn(CC(=O)Nc2cc(F)ccc2F)c1C(=O)OCC | / | i | 1 | 0 | 11 | -22 | -25 | 5
CC1=NN(c2ccc(C)cc2)C(=O)/C1=C/c1ccc(-c2cc([N+](=O)[O-])ccc2O)o1 | / | i | 5 | 0 | 69* | 0 | -17 | 105*
COc1ccccc1NC(=O)C1CCCN1S(=O)(=O)c1cccc2nsnc12 (centres undefined) | -2 | i | 1 | 2 | 3 | -15 | / | -5
OCc1cn(-c2ccccc2)nc1-c1cccnc1 | 8 | i | -1 | 0 | 4 | -18 | / | -5
O=C1CCc2cc(S(=O)(=O)Nc3ccccc3)cc3c2N1CCC3 | -7 | i | 2 | -3 | / | / | -2 | /
O=C(Nc1ccccc1N1CCCCC1)c1cccc(F)c1 | 3 | i | 5 | -2 | 21 | -25 | 10 | -2
O=C(NNC(=O)c1cccs1)c1ccc2ccccc2c1 | -3 | i | 12 | 9 | -3 | / | -13 | -9
COc1ccc(S(=O)(=O)N2CCC(C(N)=O)CC2)cc1C(=O)N1CCCCCC1 | 1 | i | -3 | -2 | 1 | / | -6 | 3
CCc1ccc(-c2cc(C)no2)cc1S(=O)(=O)N1CCN(c2ccccc2)CC1 | 62 | i | -6 | -11 | -1 | -12 | 20 | -6
O=C(COC(=O)CC(c1ccccc1)c1ccccc1)Nc1cccc(F)c1 | 10 | i | 0 | 3 | 6 | / | -5 | 9
Cc1cccc(-n2ccc(=O)c(C(=O)Nc3ccc(S(=O)(=O)Nc4onc(C)c4C)cc3)n2)c1 | -16 | i | 0 | 1 | / | -12 | 0 | /
CN1CCN(c2nc(Nc3cccc(C(F)(F)F)c3)nc(N3CCOCC3)n2)CC1 | 23 | i | -11 | -6 | 2 | -1 | 18 | -1
CCCCOc1ccc(NC(=O)CSc2cccc3cccnc23)cc1 | 11 | / | 0 | 1 | -5 | -7 | -1 | 1
Cc1ccc(NC(=O)CN2C(=O)S/C(=C\c3cc(C)n(-c4cccc(C(=O)O)c4)c3C)C2=O)cc1 | 0 | i | -1 | -1 | -1 | / | 0 | -8
Oc1ccc(NCc2ccc(OCc3ccccc3)cc2)cc1 | 12 | i | 24 | 11 | 8 | -14 | -27 | 34
CCN(CCNC(=O)C1=C(C)C(=O)OC12CCC(C)CC2)c1ccccc1 (centres undefined) | 1 | i | -3 | -4 | -1 | 7 | 20 | -5
Cc1c(OC(C)C(=O)NCc2ccncc2)ccc2c3c(c(=O)oc12)CCCC3 (centres undefined) | 13 | i | 3 | -2 | -10 | -15 | 4 | -3
CCOC(=O)C(C(=O)NCc1ccc(C)cc1)c1ncc(C(F)(F)F)cc1Cl (centres undefined) | 0 | i | -3 | -3 | -5 | -4 | / | -5
Cc1cc(S(=O)(=O)ON2C(=O)c3ccccc3C2=O)ccc1F | -3 | i | -2 | 1 | 5 | -18 | -6 | -6
CCCCc1nc2cc(C(=O)N3CCCC(COC)C3)ccc2o1 (centres undefined) | -13 | i | -6 | 2 | 18 | -14 | -34 | -8
O=C(OCc1ccccc1)N1CCCC2CC1c1ccccc12 (centres undefined) | / | / | -4 | -2 | / | 5 | -37 | /
Cc1ccc(NC(=O)C(C)Sc2nnc(-c3cccnc3)o2)cc1 (centres undefined) | -8 | i | -2 | 1 | 4 | -49 | -56 | 6
O=C(COC(=O)C1=COCCO1)NCc1ccc(F)cc1 | -11 | i | -2 | -1 | 1 | -13 | 6 | -13
Fc1ccc(COc2ccccc2CNCc2ccncc2)cc1 | -9 | i | -12 | -2 | 9 | / | 13 | -11
COc1ccc([N+](=O)[O-])cc1NC(=O)C(C)OC(=O)c1ccccn1 (centres undefined) | -18 | / | 1 | 7 | -8 | -9 | 9 | -12
COc1ccc2c(c1)-c1c(ssc1=S)C(C)(C)N2S(=O)(=O)c1ccc(C)cc1 | 66 | i | 1 | -18 | 15 | / | 72* | 43
Cc1nn(Cc2ccccc2Cl)c(C)c1NC(=O)NC12CC3CC(CC(C3)C1)C2 | -5 | i | -16 | -18 | -3 | -8 | / | 4
CCOC(=O)c1sc(NC(=O)c2ccc(S(=O)(=O)N(C)C)cc2)nc1C | 1 | i | 4 | -1 | -4 | -11 | / | -7
CCOc1ccccc1/C=N/NC(=O)CSc1n[nH]c(=O)[nH]c1=O | -9 | i | 2 | 5 | 0 | / | 8 | 4
Cc1cc(C(=O)Nc2ccc(Cl)cc2)c(C)n1Cc1cccs1 | 27 | i | -4 | -7 | 10 | / | -211 | 10
CCC1CCC2(CC1)NC(=O)N(CC(=O)c1c(C)[nH]c3ccccc13)C2=O (centres undefined) | 16 | i | -13 | -6 | -2 | / | / | -6
COc1ccc(OC)c(NC(=O)CNC(c2ccccc2)c2ccccc2)c1 | -2 | i | 17 | -3 | 4 | -8 | 20 | 1
CCOC(=O)c1sc2ncnc(N3CCN(C(=O)OCC)CC3)c2c1C | / | i | 7 | 2 | 10 | -11 | / | 3
COc1ccc(NC(=O)CN(C)C(=O)CCC2CCCC2)cc1 | 10 | i | -2 | -5 | 9 | -9 | -12 | -3
C/C(=N\Nc1cccc2cccnc12)c1ccc(N)cc1 | 2 | i | -4 | 7 | 16 | / | -59 | 33
O=C1CC(N2CCc3ccccc32)C(=O)N1c1ccccc1 (centres undefined) | -2 | i | 1 | 2 | 8 | -12 | -3 | -10
COc1cc2c(C#N)c(N3CCN(c4ccccc4OC)CC3)nc(N)c2c(N)n1 | 2 | i | -5 | -13 | -1 | 4 | / | 11
CCn1c(P(C)(=O)O)nc2cc(NC(=O)c3ccccc3Cl)ccc21 | -9 | i | 2 | 5 | 6 | / | 7 | 4
COc1cc(/C=C2\SC(=O)N(CCNC(=O)c3sc4cc(F)ccc4c3Cl)C2=O)cc(OC)c1OC | 33 | i | 5 | 7 | 36 | 4 | -26 | 10
COC(CN1CCc2c(C)nc3c(C#N)cnn3c21)OC | / | i | -7 | 0 | 21 | / | -13 | 0
CC(=O)c1ccc(NC(=O)c2ccc3c(=O)n4c(nc3c2)CCCCC4)cc1 | -9 | i | 2 | -12 | 11 | -3 | 18 | -8
CCOC(=O)CSc1nnc(CNC(=O)c2cccs2)n1Cc1ccccc1 | -6 | i | 7 | 5 | -2 | -7 | -36 | -6
Cc1ccccc1NC(=O)COC(=O)CCSc1ccccc1 | -3 | i | -4 | 0 | 2 | / | -10 | 0
CCOC(=O)NNC1CC(=O)N(c2ccc(OC)cc2)C1=O (centres undefined) | -6 | i | 3 | 3 | 4 | / | -9 | -1
O=C(Nc1nccs1)c1ccc(Br)c(S(=O)(=O)N2CCCC2)c1 | -5 | i | 1 | -12 | 10 | -25 | -3 | 4
S=C(Nc1ccccc1)Nc1ccc(Br)cc1 | 25 | i | 0 | 2 | 4 | -28 | -24 | -12
C#CCOCCOCCOCCNc1nc(N2CCOCC2)nc(N2CCN(C(=O)[C@H](C)n3cc(CCC(=O)O)nn3)CC2)n1 | / | / | -3 | 3 | / | 3 | -27 | /
COc1ccc(NC(=O)C2C(c3ccccc3)C2(Cl)Cl)c(OC)c1 (centres undefined) | 42 | i | 5 | -7 | -6 | -6 | 6 | -9
O=C(COC(=O)Cc1ccccc1[N+](=O)[O-])NCc1ccc(Cl)cc1 | 2 | i | -2 | 1 | 2 | / | 9 | -4
O=C(Nc1ccccc1)c1cccnc1NCCc1ccccc1 | 10 | i | -8 | -7 | 12 | / | 2 | 1
CN1CCC(N(CCc2ccccc2)C(=O)CCC(=O)O)CC1 | -18 | i | 9 | 2 | 11 | -16 | 12 | -2
COc1ccc(C(=O)Nc2ccc(-c3nnn(CC(=O)NCc4ccco4)n3)cc2)cc1 | -13 | / | 1 | 1 | -6 | -21 | -7 | 11

The list continues.
SMILES | CSC inhib | Rce1 inh | MT1-MMP act inh | MT1-MMP act inh RFP | PABP FP inh | UUG fidelity | Env fusion inh | eIF4H inh
COc1ccc(-c2cc(N3C(=O)Nc4ccccc4N3O)n[nH]2)cc1OC | -9 | i | -1 | 4 | 26 | / | / | -15
Cc1ccc(NC(=O)CSc2nnc(-c3cccnc3)n2CCN2CCCCC2)cc1 | 2 | i | 2 | 5 | 0 | / | 1 | -2
CC(C)OCCCNC(=O)CCN1C(=O)COc2ccccc21 | -10 | i | 1 | 2 | -8 | -7 | / | 0
Cc1c(C(=O)OCC(=O)N(CC(C)C)c2c(N)n(Cc3ccccc3)c(=O)[nH]c2=O)oc2ccccc12 | / | / | -7 | -9 | / | 9 | -8 | /
CC(C)C(=O)N1CCN(c2c(Cl)cccc2[N+](=O)[O-])CC1 | 8 | i | -2 | -7 | -2 | -8 | -94 | 0
CC(c1ccco1)N(C(=O)c1cccc(S(=O)(=O)N(C)C)c1)c1ccccn1 (centres undefined) | -11 | i | -1 | 0 | -10 | -14 | 0 | -12
CCOCCCNC(=O)N[C@H](C(=O)OC)C(C)CC (some centres undefined) | -3 | i | 0 | 0 | -13 | / | 17 | -3
CC(OC(=O)c1ccc(Cl)nc1)C(=O)NC1CCCC1 (centres undefined) | -7 | / | -2 | 5 | / | -10 | / | /
N#Cc1ccc(C(=O)N(Cc2ccccc2)c2ccccc2)cc1 | 2 | / | 0 | -1 | 7 | -12 | 5 | -6
COc1ccc(C(=O)NCC(=O)OCc2ccccc2F)cc1 | 1 | i | 2 | 2 | -9 | -10 | 15 | -9
COC(=O)c1ccccc1NC(=O)c1cc[n+]([O-])cc1 | 1 | i | -5 | -2 | 0 | -16 | -4 | 3
O=C(CN1C(=O)NC2(CCc3ccccc3C2)C1=O)NCc1ccco1 (centres undefined) | -15 | i | -2 | -4 | -13 | -3 | -27 | -1

5 entries from above, with two lines to a compound.
Order of values – CSC inhib	Rce1 inh	MT1-MMP act inh	MT1-MMP act inh RFP	PABP FP inh	UUG fidelity	Env fusion inh	eIF4H inh
CCOc1cc(N2CCOCC2)c(OCC)cc1NC(=O)c1nc2nc(C)cc(C)n2n1
    -10	i	3	3	12	-14	/	0
COC(CN1CCc2c(C)nc3c(C#N)cnn3c21)OC
    /	i	-7	0	21	/	-13	0
O=C1CCc2cc(S(=O)(=O)Nc3ccccc3)cc3c2N1CCC3
    -7	i	2	-3	/	/	-2	/
Cc1c(C(=O)OCC(=O)N(CC(C)C)c2c(N)n(Cc3ccccc3)c(=O)[nH]c2=O)oc2ccccc12
    /	/	-7	-9	/	9	-8	/
Cc1ccc(CNC(=O)COC(=O)Cn2nc(C)c([N+](=O)[O-])c2C)cc1
    -1	i	-3	5	3	-17	-5	2

Source: PubChem BioAssay
